Sa growth 42C – inhibitors of Staphylococcus aureus growth at 42 °C; actives 0.53% (n = 170,000); S. aureus RN4220 growth, OD600, 20 h; hits give low values; relative growth, % (concentration not given with the values); AID 720641;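 active = growth at 42 °C up to 50% and 20 or more points under that at 30 °C, or under 10% at both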;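 also: 300 nL library stock went into each well; scaled to the means of positive and negative controls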
HCMV UL50-53 inh – cytomegalovirus nuclear egress complex inhibition. HTRF UL50-UL53 interaction, normalized percent inhibition. inhibition, % (test concentration not listed). actives 0.15% (n = 190,000);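 active = both replicates at 50% or more, plus weaker picks with an unusually low signal ratio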;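 also: stock transfer was 100 nL into about 20 µL; 0% = negative control wells and 100% = wells with untagged competitor protein; inactives centre near -12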
GIV Gai3 FP – blocks GIV peptide binding to rat Galpha-i3 | P08753 | Galpha-i3/FITC-GIV peptide fluorescence polarization, 90 min; hits give low values; scaled: aluminum fluoride 0%, vehicle 100% | percent of control (FP), % (concentration not given with the values) | actives 0.42% (n = 210,000) | AID 1224905;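 active = replicate mean at 85% of control or lower, very high polarization wells dropped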;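 also: wells of about 15 µL received 100 nL stock; the first replicate is given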
Target sequence (P08753 whole entry, looked up): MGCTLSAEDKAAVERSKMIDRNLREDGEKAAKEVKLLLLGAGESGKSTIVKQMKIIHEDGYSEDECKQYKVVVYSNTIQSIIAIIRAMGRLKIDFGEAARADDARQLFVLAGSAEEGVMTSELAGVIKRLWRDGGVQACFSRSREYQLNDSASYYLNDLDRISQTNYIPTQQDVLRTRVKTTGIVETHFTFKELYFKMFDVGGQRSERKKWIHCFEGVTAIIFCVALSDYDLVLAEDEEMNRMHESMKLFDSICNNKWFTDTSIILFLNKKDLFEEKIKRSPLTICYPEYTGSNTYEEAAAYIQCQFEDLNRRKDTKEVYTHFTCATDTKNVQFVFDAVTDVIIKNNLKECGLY
Sa growth 42C second temp – further read-out of Sa growth 42C, marked with its call; relative growth, %; measured here: growth at 30 °C;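 optical density after 20 h as mean of two plates; 100% = untreated growth and lower means inhibition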
* marks the source's active call; other numbers are inactive results; . = not tested or not shown; & = joins results of further samples.

SMILES	Sa growth 42C	Sa growth 42C second temp	HCMV UL50-53 inh	GIV Gai3 FP
CCN1C(=O)C(Cc2nc3ccccc3c(=O)n2-c2ccccc2)c2cc(Br)ccc21 (configuration not stated)	92.0	85.4	-31.5	102.5
O=S(=O)(c1cccc(C(F)(F)F)c1)N1CCN(S(=O)(=O)c2cccc(C(F)(F)F)c2)CC1	103.8	101.4	-3.5	98.7
O=C(CCn1[nH]c(=O)ccc1=O)Nc1ccc(-c2cc3ccccc3o2)cc1	117.8	94.2	-11.7	.
Cc1cc(Sc2ccccn2)c2ccccc2n1	81.1	101.9	6.1	.
CC(=O)N1CCCc2cc(S(=O)(=O)N(C)CC(=O)Nc3ccc(Cl)cc3C)ccc21	92.0	96.6	.	103.2
COc1ccc(CC(=O)Nc2ccc(-c3nc4ccccc4s3)cc2Cl)cc1	125.8	87.4	.	95.9
O=C(O)Cc1cn(-c2ccc(Cl)nn2)c2ccccc12	.	.	-26.3	98.5
Cc1ccc(-c2cc3nccc(-c4cc([N+](=O)[O-])ccc4O)n3n2)cc1	51.8	36.7	-25.6	106.5
Cc1cccc(N2CCN(C(=O)CCC(=O)O)CC2)c1C	119.0	92.2	.	101.2
COC(=O)c1ccc(NC(=S)NC(=O)C2CC2)cc1	143.9	97.0	-10.0	104.2
Cc1cc(C)c(C(N)=O)c(CC(C)(C)C(=O)O)c1	92.5	91.8	-11.7	104.1
CCc1ccc(OCC(=O)Nc2c(C(=O)c3ccccc3)oc3ccccc23)cc1	106.8	90.8	-16.4	104.8
COC(=O)c1c(C(C)(C)C)oc2c1cc(NS(=O)(=O)c1ccc(C)cc1)c1ccccc12	76.6	94.5	.	109.6
CC1N=C(N)C(c2nc3ccccc3n2C)=C1O (configuration not stated)	99.0	97.9	-29.5	.
O=C(COC(=O)COc1ccc(Br)cc1)NC1CCCC1	103.8	98.0	-5.5	.
CCC1=C(c2ccc(C)cc2)S(=O)(=O)N=C1N1CCC(C(=O)N2CCC(C)CC2)CC1	99.1	95.4	5.3	108.1
COCCOC(=O)C1=C(C)NC2=C(C(=O)CC(c3ccc(OC)c(OC)c3)C2)C1c1cccc([N+](=O)[O-])c1 (configuration not stated)	.	.	-1.6	102.0
COc1ccc(OCC(=O)Nc2c[nH]c(=O)[nH]c2=O)cc1	108.3	92.6	-7.0	.
CCc1ccc(-c2nc(CSCC(=O)NCc3ccco3)c(C)o2)cc1	111.7	78.0	-5.7	108.2
COc1ccc(C(=O)N2c3ccc(C)cc3C(Nc3ccc(C)cc3)CC2C)cc1 (configuration not stated)	.	.	-23.3	100.6
CCOC(=O)c1ccc2c(c1)nc(SC/C(O)=C(\C#N)c1nc3ccccc3[nH]1)n2CC	91.6	84.6	-21.5	.
Cc1cc(C)cc(C(=O)Nc2ccc(-c3cn4cccnc4n3)cc2)c1	113.1	95.7	-16.9	101.9
CCCCNC(=O)C1CCN(Cc2ccccc2OCC)CC1	116.7	79.0	3.1	97.9
Cc1ccc(C)n1-c1nn(S(=O)(=O)c2cccc3cccnc23)c2cccc(F)c12	98.8	96.8	-22.7	104.3
Cc1onc(-c2ccccc2)c1C(=O)Nc1cccnc1	97.0	85.8	-1.8	.
Next part.
SMILES	Sa growth 42C	Sa growth 42C second temp	HCMV UL50-53 inh	GIV Gai3 FP
O=C(O)c1cccc(Nc2ccnc3cc(Cl)ccc23)c1	77.8	94.1	-13.4	98.7
Cc1c(Cc2ccccc2)sc(/N=C/c2ccc(Cl)cc2)c1C(N)=O	101.8	89.8	-1.5	.
CCOc1ccc(/C=N/NC(=O)c2cccnc2)cc1CN1CC2CC(C1)c1cccc(=O)n1C2 (configuration not stated)	104.1	77.7	-57.4	104.9
CC12CCC(=O)N1C(C(=O)OCn1nnc3ccccc3c1=O)CS2 (configuration not stated)	102.3	99.0	-19.4	.
O=S(=O)(c1ccc(NC(=S)NCc2ccco2)cc1)N1CCCC1	107.8	94.9	0.1	111.4
N#Cc1c(N2CCCC2=O)sc2c1CCC2	104.5	86.5	-16.2	.
Cc1ccc(C)c(OCCC(=O)N2CCN(S(=O)(=O)c3cc(F)ccc3F)CC2)c1	102.7	108.9	7.4	.
COC(=O)C1Cc2ccccc2CN1 (configuration not stated)	98.0	100.8	-1.8	.
CCSc1nnc2c(n1)OC(CC)N(C(C)=O)c1ccccc1-2 (configuration not stated)	94.2	107.2	-67.9	105.1
CCc1ccc(NC(=O)COC(=O)CC2CCCC2)cc1	104.0	88.0	-26.1	.
COc1ccc(CCn2nnnc2CN2CCN(Cc3ccccc3)CC2)cc1OC	113.0	95.4	-22.9	100.3
CCc1ccc(C(=O)OCC(=O)NC2CCCC2)cc1	93.0	92.6	-9.7	.
CCOC(=O)N1CCN(C(=O)c2sc3ncnc(N4CCN(c5ccc(OC)cc5)CC4)c3c2C)CC1	.	.	-7.3	109.9
O=C(Cc1ccccc1)c1nc2ccccc2s1	47.5	56.5	-43.7	.
Cn1c(O)c(C=Nc2ccc(Br)cc2)c2ccccc21	95.7	89.6	-33.3	.
Cc1cc(C)cc(NC(=O)C2CCCN(C(=O)c3cnn(-c4ccccc4)c3-n3cccc3)C2)c1 (configuration not stated)	95.9	94.6	-4.3	100.9
COc1cc(OC)cc(C(=O)Nc2cc3nn(-c4ccccc4)nc3cc2Cl)c1	91.2	98.0	15.0	108.7
Cc1ccc(-c2nnc(SCc3cccc(S(=O)(=O)N4CCOCC4)c3)n2N)cc1	70.4	93.0	-20.8	.
COc1ccc(CCNC(=O)c2noc3ncnc(N4CCOCC4)c23)cc1OC	.	.	-0.8	107.1
COc1ccc(C2SCC(C(=O)O)N2C(C)=O)cc1 (configuration not stated)	96.1	93.9	.	100.0
COc1ccc(CNC(=O)CN2C(=O)C(C)=C(c3ccc(C)c(C)c3)S2(=O)=O)cc1OC	.	.	-44.2	102.1
CCOC(=O)c1c(N)n(CCNC(=O)c2cc(OC)c(OC)c(OC)c2)c2nc3ccccc3nc12	103.0	81.1	-54.1	.
CC1(C)c2sc(=O)[nH]c2SC2C(=O)N(CC(=O)N3CCOCC3)C(=O)C21 (configuration not stated)	84.8	82.8	-19.1	.
COc1ccc2c(c1)sc1ncc(C(=O)NCc3cccc(C)c3)c(=O)n12	102.3	85.8	-16.8	95.5
CCCCNC(=O)C1CC(=O)N(CCc2c[nH]c3ccc(C)cc23)C1 (configuration not stated)	.	.	-13.6	100.3

Compounds from the list above that have two or more sulfur atoms:
SMILES	Sa growth 42C	Sa growth 42C second temp	HCMV UL50-53 inh	GIV Gai3 FP
O=S(=O)(c1cccc(C(F)(F)F)c1)N1CCN(S(=O)(=O)c2cccc(C(F)(F)F)c2)CC1	103.8	101.4	-3.5	98.7
O=S(=O)(c1ccc(NC(=S)NCc2ccco2)cc1)N1CCCC1	107.8	94.9	0.1	111.4
Cc1ccc(-c2nnc(SCc3cccc(S(=O)(=O)N4CCOCC4)c3)n2N)cc1	70.4	93.0	-20.8	.
CC1(C)c2sc(=O)[nH]c2SC2C(=O)N(CC(=O)N3CCOCC3)C(=O)C21 (configuration not stated)	84.8	82.8	-19.1	.

The list continues.
SMILES	Sa growth 42C	Sa growth 42C second temp	HCMV UL50-53 inh	GIV Gai3 FP
CCn1c(=O)c(-c2c(C)nn(-c3ccccc3)c2C)nc2cc(S(=O)(=O)N(C)C)ccc21	105.5	97.0	-83.0	.
Cc1ccc(-c2cc(C(F)F)nc(N3CCC(C)CC3)n2)cc1	.	.	-34.6	102.0
C=Cc1ccc(Cn2c(C(=O)O)c(CNCCc3ccccc3)c3ccc(C)cc32)cc1	95.9	93.5	.	104.4
O=C(Nc1ccc(NC(=O)C2CC2)cc1)C1CC1	111.1	91.3	-4.2	100.9
CCOC(=O)Cc1c(C)[nH]c(=O)[nH]c1=O	83.1	102.8	.	105.4
Cc1cc(NC(=O)CSc2nc3c([nH]c4ccccc43)c(=O)n2-c2ccccc2)no1	99.7	85.4	.	105.9
CCC(C(=O)NCc1cccnc1)c1ccccc1 (configuration not stated)	110.8	96.5	-28.1	101.9
CC1=CC(C)C2(COC(=O)Nc3ccccc3)COC(c3cccnc3)C1C2C (configuration not stated)	77.0	36.7	8.5	.
CCn1c(=O)n(-c2ccc3c(c2)OCO3)c2nc(-c3ccc(C(C)C)cc3)nc(C(N)=O)c21	105.5	106.0	16.3&4.3	109.4&101.5
COc1ccc(C2(CNC(=O)Cc3ccc(OC)c(OC)c3)CCOCC2)cc1	83.1	79.9	-19.1	94.7
O=C(CSc1nc(-c2ccccc2)cc(=O)[nH]1)c1ccc(Cl)s1	107.5	91.0	12.3	107.6
CCOC(=O)c1ccc(NC(=O)Cn2cc(C(=O)c3cccs3)c3ccccc32)cc1	91.2	81.8	-6.5	98.3
COc1ccc(-c2noc(CSc3nnc(Cc4ccccc4)n3-c3ccc(F)cc3)n2)cc1	97.3	93.5	-7.4	105.7
COc1ccc(OC)c(CCNC(=O)c2ccc3c(c2)c(C)c(C)n3Cc2ccccc2)c1	126.7	91.2	.	109.6
CCOc1ccc(N=C2S/C(=C\c3ccc(N(C)C)cc3)C(=O)N2CC)cc1	.	.	-2.4	94.8
CC(C)(C)C(=O)OCc1nc(-c2ccc(C(F)(F)F)cc2)cs1	98.9	96.9	9.3	105.1
O=C(NCC(c1ccccc1Cl)N1CCCC1)c1cc(-c2ccccc2)on1 (configuration not stated)	.	.	-6.3	112.7
O=S1(=O)NC(=NCCc2ccccc2)c2ccccc21	.	.	-10.7	101.7
COc1cc(/C=C2\SC(NC(C)=O)=NC2=O)ccc1OCc1ccccc1C	.	.	-28.0	110.3
Cc1cc(-c2nnc3sc(COc4ccc(C(C)(C)C)cc4)nn23)n[nH]1	.	.	-12.9	108.2
O=C(CN1C(=O)S/C(=C/c2ccc(Cl)cc2)C1=O)NC1CCCCC1	104.7	81.3	-28.3	.
c1nc(N2CCCC2)c2ccsc2n1	105.0	88.9	-17.3	103.0
O=C(NCc1cccnc1)C1CCN(S(=O)(=O)c2ccc3[nH]c4c(c3c2)CCCCC4)CC1	.	.	-5.1	111.5
COc1ccc(C2NC(=O)N(C)C3=C2C(=O)N(c2ccc(C)cc2)C3)cc1 (configuration not stated)	111.5	87.6	-23.9	99.1
CN(C(=S)NCc1ccco1)c1ccccc1	47.5	50.5	-14.3	.

Four compounds from above, reduced to Sa growth 42C second temp, Sa growth 42C and GIV Gai3 FP:
Structure | Sa growth 42C second temp | Sa growth 42C | GIV Gai3 FP
CCOC(=O)Cc1c(C)[nH]c(=O)[nH]c1=O | 102.8 | 83.1 | 105.4
O=C(CN1C(=O)S/C(=C/c2ccc(Cl)cc2)C1=O)NC1CCCCC1 | 81.3 | 104.7 | .
CC(C)(C)C(=O)OCc1nc(-c2ccc(C(F)(F)F)cc2)cs1 | 96.9 | 98.9 | 105.1
O=S1(=O)NC(=NCCc2ccccc2)c2ccccc21 | . | . | 101.7

More records:
SMILES	Sa growth 42C	Sa growth 42C second temp	HCMV UL50-53 inh	GIV Gai3 FP
OC(Cc1nc2ccccc2[nH]1)c1nc2ccccc2[nH]1 (configuration not stated)	81.0	83.5	10.2	.
Cc1ccc(C(=O)c2cn(CC(=O)NC3CCCCC3)c3nc(C)ccc3c2=O)cc1	91.4	90.0	.	102.7
O=C(O)c1cc(=O)c2c(Cl)cc(Cl)cc2[nH]1	.	.	-14.9&-54.3	105.2
COc1ccc(CNC(=O)c2ccc3c(c2)CCN3S(=O)(=O)c2ccc(C)cc2)cc1	119.5	92.8	-7.8	110.1
Cn1nc(C(=O)Nc2ccc3c(c2)OCCO3)cc1C(F)(F)F	.	.	-1.5	98.0
Cc1cccc(Cn2c(SCC(C)O)nc3c2c(=O)[nH]c(=O)n3C)c1 (configuration not stated)	.	.	-7.2	107.5
CCn1c(NC(=O)Nc2cccc(C)c2C)cc2sccc21	.	.	-14.3	108.4
Cc1oc2ncnc(N3CCC(C(=O)NC4CCCC4)CC3)c2c1C	.	.	-26.2	97.2
Cc1c(OCC(=O)O)ccc2c(-c3ccccc3)cc(=O)oc12	76.9	96.0	-49.9	.
CCCc1nc2nc(C)[nH]n2c(=O)c1NC(=O)Nc1ccc2c(c1)OCCO2	.	.	1.8	96.6
CN(C(=O)COc1ccc2ccc(=O)oc2c1)C1CCCCC1	103.6	89.5	-16.2	.
CC(C)CCNC(=O)C1(C)CCC(=O)N1CCCN1CCCC1 (configuration not stated)	.	.	-28.1	103.9
CN(C)c1ccc(Nc2cccc3nonc23)cc1	113.6	109.0	-62.8	100.9
CC(C)Sc1cc2c(cc1NS(=O)(=O)c1ccccc1Br)n(C)c(=O)n2C	.	.	-26.3	106.6
COc1ccc(Cl)cc1NC(=O)CSC1=Nc2ccccc2C2=NC(CC(=O)NC3CCCCC3)C(=O)N12 (configuration not stated)	108.6	82.3	-12.9	103.1
CC(=O)N1CCc2c(sc3nc(SCC(=O)Nc4nccs4)n(-c4ccccc4)c(=O)c23)C1	.	.	-6.6	112.6
COc1ccc(S(=O)(=O)N2CCc3cc4ccc(OC)cc4nc32)c(OC)c1	.	.	-9.8	102.9
O=c1c2ccccc2nc2ccc(NC3CCCCC3)nn12	95.5	67.3	-50.9	109.9
O=S(=O)(O)CCS	96.8	93.4	-21.8&4.4&-61.4	.
COCC(C)NC(=O)c1cccs1 (configuration not stated)	115.7	86.5	-9.2	.
Cn1ccnc1Sc1ccc(S(=O)(=O)N2CCCC2)cn1	74.3	93.9	-29.1	.
COc1ccc(-c2cn3ccccc3n2)cc1	88.5	74.2	-7.1	103.7
CCCNC(=O)N1CCN(c2ncccn2)CC1	80.3	85.0	-37.4	96.5
Cc1ccc2onc(CC(=O)NC3CCCCC3)c2c1	92.0	86.1	.	96.9
O=C(O)c1ccccc1C(=O)NCc1ccc(-c2cccs2)s1	160.2	95.7	-28.9	103.8
